Bioassay records deposited in PubChem BioAssay by several laboratories.
RecA splice inh = Mtb RecA intein splicing inhibitors, primary screen, biochemical, fluorescence, HTS; 0.75% of 290,000 active; inhibition, %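 (about 9 µM by stock and volumes)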; cell-free RecA intein splicing; AID 2221, 2009; Protein RecA (Mycobacterium tuberculosis (strain ATCC 25618 / H37Rv)), P9WHJ3; in the data active = inhibition above about 30%;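 note: 0% = vehicle wells and 100% = reference inhibitor control wells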
Target sequence (P9WHJ3 whole entry, looked up, canonical isoform): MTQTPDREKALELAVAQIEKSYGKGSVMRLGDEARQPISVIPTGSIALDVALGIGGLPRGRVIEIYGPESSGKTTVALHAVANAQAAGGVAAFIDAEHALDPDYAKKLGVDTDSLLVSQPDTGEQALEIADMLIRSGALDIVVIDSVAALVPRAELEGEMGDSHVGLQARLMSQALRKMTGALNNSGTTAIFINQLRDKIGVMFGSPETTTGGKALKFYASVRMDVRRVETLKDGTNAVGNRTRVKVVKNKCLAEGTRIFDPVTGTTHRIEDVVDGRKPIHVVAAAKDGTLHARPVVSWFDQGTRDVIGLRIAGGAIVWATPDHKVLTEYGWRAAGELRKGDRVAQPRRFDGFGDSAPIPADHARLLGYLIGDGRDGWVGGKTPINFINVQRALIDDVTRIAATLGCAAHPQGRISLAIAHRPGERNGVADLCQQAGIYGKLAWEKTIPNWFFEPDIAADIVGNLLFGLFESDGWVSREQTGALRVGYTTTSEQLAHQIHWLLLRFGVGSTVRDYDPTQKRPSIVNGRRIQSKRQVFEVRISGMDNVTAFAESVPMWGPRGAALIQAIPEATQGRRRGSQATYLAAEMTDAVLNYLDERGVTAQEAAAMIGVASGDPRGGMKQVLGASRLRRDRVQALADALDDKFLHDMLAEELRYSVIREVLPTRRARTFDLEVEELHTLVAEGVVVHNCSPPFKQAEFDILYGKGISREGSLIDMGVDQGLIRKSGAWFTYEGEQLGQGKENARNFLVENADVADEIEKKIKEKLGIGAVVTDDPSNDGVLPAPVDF
Mtb growth = M. tuberculosis H37Rv growth inhibitors, H37Rv strain (AID 1626); M. tuberculosis H37Rv growth inhibition; higher % means a stronger effect; one-dose inhibition, % at 10 µM; IC50 in µM for titrated hits; 0.95% of 220,000 active;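 active = confirmed in a dose series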;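 note: bacteria incubated seven days before Alamar blue readout; 0% = bacteria only wells and 100% = bacteria with antibiotic wells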
Arbovirus inh = antivirals against arbovirus infection, primary screen, cell-based, full library, 10K replicate subset; arbovirus infection cell-based antiviral screen; inhibition, % at 10 µM; 0.37% of 200,000 active; AID 1251, 2008;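 active = inhibition from about 30%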;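 note: bluetongue infection of BSR cells; cell survival read as ATP light after 72 h; 0% = infected wells without compound and 100% = uninfected wells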
Mtb bLac sens = beta-lactam sensitization of Mtb H37Rv, H37Rv; inhibition, % at 25 µM; 0.27% of 330,000 active; M. tuberculosis H37Rv growth with meropenem, percent inhibition; hits of this screen are not shown here;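 active = about 74% or more and at least 40 points above the plate without the antibiotic, then above 30% in a dose series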;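 note: growth measured after seven days incubation then overnight dye step; 0% = bacteria only wells and 100% = bacteria with antibiotic; twin plates without the antibiotic show which effects depend on it; some results filed as inactive read as strong as hits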
YopH PTP inh = YopH tyrosine phosphatase inhibitors, primary screen, biochemical, fluorescence Ex485/Em525; YopH tyrosine phosphatase [Yersinia enterocolitica]; inhibition, %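 (about 10 µM by stock and volumes)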; 0.16% of 140,000 active;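 active = inhibition of 50% or more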;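 note: controls were vehicle for no effect and minimum signal wells for full effect; inactives centre near -20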
Arbovirus inh repeat = second read-out of Arbovirus inh, no call of its own (marks repeat the call); inhibition, %; measured here: 10K subset replicate screen; many hits read low in the repeat;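 first of two repeat runs on a subset; 0% = infected and 100% = uninfected wells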
* = called active by the depositor; · = not tested or not shown.

SMILES	RecA splice inh	Mtb growth	Arbovirus inh	Mtb bLac sens	YopH PTP inh	others
C/C(=N\NC(=O)Cn1cc([N+](=O)[O-])cn1)c1ccco1	1.7	-4.2%	·	-6.3	·
O=C(Nc1ccc(N2CCOCC2)c(Cl)c1)c1ccc(F)cc1	0.7	6.2%	-5.3	-3.0	3.9
O=C1CN(C(=O)COC(=O)CCC(=O)c2ccc3c(c2)OCCO3)c2ccccc2N1	0.3	-2.5%	10.4	-4.2	-43.9
CCC1CCCCN1C(=O)c1ccc2c(c1)C(=O)N(c1ccc(C)cc1)C2=O (centres undefined)	10.5	·	·	4.1	·
O=C(NCC(=O)N(c1ccccc1)C(C(=O)NC1CCCCC1)c1cccnc1)c1ccco1 (centres undefined)	0.6	·	·	-0.6	·
CCN1C(=O)[C@H]2[C@@H](c3ccc(-c4ccc(C(C)=O)cc4)cc3)N3CCCC[C@@]3(C(=O)OC)[C@H]2C1=O	13.3	·	·	-8.5	·
Cc1cc(CN(C)Cc2ccc(OCC(O)CN(C)Cc3ccccc3)cc2)on1 (centres undefined)	1.2	1.7%	-5.9	1.8	·
CC1CCc2sc(-c3n[nH]c(=S)o3)cc2C1 (centres undefined)	3.8	-3.5%	4.5	3.5	·
CC(C(=O)NCc1ccc(F)cc1)n1ccc2cc(S(=O)(=O)N3CCCC3)ccc21 (centres undefined)	2.4	·	·	10.6	·
CCCN(C(=O)Cc1coc2cc(C)c(C)cc12)c1c(N)n(Cc2ccccc2)c(=O)[nH]c1=O	-3.2	·	·	-3.5	·
Cc1ccccc1Cn1cc(S(=O)(=O)CC(=O)Nc2nccs2)c2ccccc21	5.6	1.1%	2.2	-10.2	-23.1	Arbovirus inh repeat=7.0
CCc1ccc(NC(=O)C2CCC(CNC(=O)[C@@H]3Cc4ccccc4CN3)CC2)cc1 (some centres undefined)	-0.2	·	·	0.7	·
Cn1c(=O)[nH]c(=O)c2c1nc(SCC(=O)O)n2CCc1ccccc1	-1.8	-0.6%	0.2	-7.2	-26.2
O=C(Nc1ccccc1Cl)C1CC(=O)N(c2ccccc2)C1 (centres undefined)	1.0	5.0%	·	-6.0	·
Cc1nn(-c2cccc(C(F)(F)F)c2)c(Cl)c1/C=N/n1cnnc1	6.0	4.4%	7.5	-5.1	-7.7	Arbovirus inh repeat=-0.9
CC(CNCC1CCCO1)COc1ccccc1 (centres undefined)	-0.4	-8.3%	2.1	2.4	4.4
Cc1ccc(NC(=S)NCc2cccs2)c(C)c1	1.7	4.7%	-2.7	-9.2	-21.6
C1=C(c2ccccc2)CCN(c2nc3ccccc3n3cnnc23)C1	12.0	6.5%	-1.4	-7.3	-45.6	Arbovirus inh repeat=5.9
COC(=O)c1ccc(NC(=S)NC2CC3CCC2C3)cc1 (centres undefined)	3.3	5.0%	16.0	77.2	-7.4
CC(C)Cc1ccc(S(=O)(=O)N2CCN(c3ccccn3)CC2)cc1	-0.6	·	·	2.5	·

An excerpt from above in order of length of the SMILES, highest first.
SMILES	RecA splice inh	Mtb growth	Arbovirus inh	Mtb bLac sens	YopH PTP inh	others
CCc1ccc(NC(=O)C2CCC(CNC(=O)[C@@H]3Cc4ccccc4CN3)CC2)cc1 (some centres undefined)	-0.2	·	·	0.7	·
Cc1ccccc1Cn1cc(S(=O)(=O)CC(=O)Nc2nccs2)c2ccccc21	5.6	1.1%	2.2	-10.2	-23.1	Arbovirus inh repeat=7.0
Cc1nn(-c2cccc(C(F)(F)F)c2)c(Cl)c1/C=N/n1cnnc1	6.0	4.4%	7.5	-5.1	-7.7	Arbovirus inh repeat=-0.9
CC(C)Cc1ccc(S(=O)(=O)N2CCN(c3ccccn3)CC2)cc1	-0.6	·	·	2.5	·
O=C(Nc1ccccc1Cl)C1CC(=O)N(c2ccccc2)C1 (centres undefined)	1.0	5.0%	·	-6.0	·
COC(=O)c1ccc(NC(=S)NC2CC3CCC2C3)cc1 (centres undefined)	3.3	5.0%	16.0	77.2	-7.4

(next part)
SMILES	RecA splice inh	Mtb growth	Arbovirus inh	Mtb bLac sens	YopH PTP inh	others
COc1ccccc1Cn1c(SCC(N)=O)nc2c(oc3ccccc32)c1=O	·	1.2%	-1.7	·	·
CN(C(=O)CNC(=O)OCc1ccccc1)c1ccc(Br)cc1C(=O)c1ccccc1Cl	15.6	8.1%	-24.4	1.0	-13.1
COc1ccc(CC(=O)NCc2n[nH]c(=S)n2-c2ccc(Br)cc2)cc1	-0.2	-9.3%	6.2	2.7	·
COc1c(C)cc(C(=O)C2CCCN(S(=O)(=O)N(C)C)C2)cc1C (centres undefined)	1.9	·	·	-2.6	·
COc1ccc(/C=N/NC(=O)Cn2cnc3c2c(=O)n(C)c(=O)n3C)cc1	-1.4	0.5%	·	0.9	·
C/C(CC(=O)NCc1ccccc1)=N\NC(N)=S	-5.2	-1.1%	3.5	73.3	·
CC1CC(=S)Nc2ccccc2N1Cc1ccccc1 (centres undefined)	8.6	6.7%	16.3	2.7	-0.1
CC(C)(C)c1ccc(C(=O)c2c[nH]c(C(=O)NCc3ccco3)c2)cc1	-117.7	·	-1.8	67.4	-13.1
CC(C)(C)Cc1nnc(NC(=O)CCc2ccccc2)s1	0.1	·	·	-4.2	·
CC1CN(C2=N/C(=C/c3ccc4c(c3)OCO4)C(=O)N2)CC(C)O1 (centres undefined)	-2.3	2.4%	0.0	-7.5	·

7 entries picked at random from those above:
SMILES	RecA splice inh	Mtb growth	Arbovirus inh	Mtb bLac sens	YopH PTP inh	others
CC1CN(C2=N/C(=C/c3ccc4c(c3)OCO4)C(=O)N2)CC(C)O1 (centres undefined)	-2.3	2.4%	0.0	-7.5	·
CC(C)(C)Cc1nnc(NC(=O)CCc2ccccc2)s1	0.1	·	·	-4.2	·
COc1ccc(CC(=O)NCc2n[nH]c(=S)n2-c2ccc(Br)cc2)cc1	-0.2	-9.3%	6.2	2.7	·
COc1c(C)cc(C(=O)C2CCCN(S(=O)(=O)N(C)C)C2)cc1C (centres undefined)	1.9	·	·	-2.6	·
CN(C(=O)CNC(=O)OCc1ccccc1)c1ccc(Br)cc1C(=O)c1ccccc1Cl	15.6	8.1%	-24.4	1.0	-13.1
CC(C)(C)c1ccc(C(=O)c2c[nH]c(C(=O)NCc3ccco3)c2)cc1	-117.7	·	-1.8	67.4	-13.1
COc1ccc(/C=N/NC(=O)Cn2cnc3c2c(=O)n(C)c(=O)n3C)cc1	-1.4	0.5%	·	0.9	·

Copied from the listing, 2 compounds:
SMILES	RecA splice inh	Mtb growth	Arbovirus inh	Mtb bLac sens	YopH PTP inh	others
C/C(=N\NC(=O)Cn1cc([N+](=O)[O-])cn1)c1ccco1	1.7	-4.2%	·	-6.3	·
O=C(Nc1ccc(N2CCOCC2)c(Cl)c1)c1ccc(F)cc1	0.7	6.2%	-5.3	-3.0	3.9

Next section
SMILES	RecA splice inh	Mtb growth	Arbovirus inh	Mtb bLac sens	YopH PTP inh	others
O=C(N/C(=C\c1cccc(Br)c1)C(=O)N1CCOCC1)c1ccco1	1.2	·	·	3.2	·
COc1cccc(NC(=O)CN(C)C(=O)CNC(=O)c2ccccc2F)c1	-2.4	·	·	-7.7	·
COc1ccc(C(=O)C2CCCN(Cc3cnc(N4CCOCC4)s3)C2)c(OC)c1 (centres undefined)	0.1	7.2%	5.2	-11.1	·
O=C(O)CCSc1nc2ccccc2n1-c1ccccc1	-2.0	·	·	-3.3	·
Cc1nn(CC(=O)NCc2ccc(OC(C)C)cc2)c(=O)c2cc3occc3n12	-0.7	·	-1.6	4.7	-34.8
CCOC(=O)c1nnn(-c2ccccc2C#N)c1C	-1.5	-3.2%	7.0	-3.1	-20.6
N/C(=N/OC(=O)c1cccc([N+](=O)[O-])c1)c1cccc([N+](=O)[O-])c1	-7.4	48.5%	-11.2	59.9	·
CCCCc1ccc(NC(=O)CSc2nc(=O)n(CCCN3CCOCC3)c3c2CCC3)cc1	10.0	·	·	-2.4	·
Cc1cc(NS(=O)(=O)c2ccc(NS(=O)(=O)c3ccc(CC(C)C)cc3)cc2)nc(C)n1	5.9	4.3%	3.0	1.7	·
CN1CCc2nc3sc(C(=O)NC4CC4)c(N)c3cc2C1	1.9	0.3%	-2.0	6.4	·
CCCCOc1ccc(-c2[nH]ncc2C=O)cc1	2.9	0.1%	8.7	81.7	·
CCOc1ccc(S(=O)(=O)Nc2cnc3ccccc3c2)cc1	-3.1	·	·	-0.8	·
O=S(=O)(NC1CCSc2ccccc21)c1ccccc1 (centres undefined)	4.1	·	·	1.7	·
NNC(=O)c1ccc([N+](=O)[O-])c(CS(=O)(=O)c2ccc(Cl)cc2)c1	-4.4	·	-8.3	-2.8	-15.3
COc1cc(C(=O)OCC(=O)Nc2c(F)cccc2F)cc(OC)c1C	-1.6	-4.5%	13.1	-2.8	·
COc1cc(O)c(C(=O)O)c(-c2cc(O)c(O)cc2C)c1	-4.6	1.6%	·	0.5	·
O=C(Nc1nc2ccccc2[nH]1)c1ccc(F)c(S(=O)(=O)N2CCOCC2)c1	-0.3	40.8%	2.3	84.3	-12.4
CCN1CCN(S(=O)(=O)c2ccc(C(C)(C)C)cc2)CC1	-1.1	·	·	-1.3	·
O=C1CCC(=O)N1OCCCOc1ccc2c(c1)CCC2	2.2	6.8%	4.3	-2.4	-26.4
COc1ccc2c(c1)C(c1ccc(C)o1)=NNC(c1ccccc1)=N2	1.5	-0.6%	-9.7	4.6	·
Cc1ccc(S(=O)(=O)c2cnc(-c3ccccc3)nc2Oc2ccccc2)cc1	·	-0.4%	4.5	·	-19.7
CC(C)(C)NNC(=S)Nc1cccc(F)c1	-0.4	-3.2%	·	67.6	·
CC(C)[C@H](NC(=O)OCc1ccccc1)C(=O)NCc1ccccc1	-9.5	-0.4%	7.0	-3.0	16.7
CC1CCN(S(=O)(=O)c2ccc(NC(=O)[C@@H]3CCCC[C@@H]3C(=O)O)cc2)CC1	-4.0	·	·	-11.5	·
O=[N+]([O-])c1cc(/C=N/O)ccc1SCc1ccccc1	-1.7	-1.9%	4.7	2.5	-13.6
CCn1c(N2CCN(C(=O)/C=C/c3ccccc3)CC2)nc2ccccc21	·	0.5%	1.2	14.8	·
CCN1CCN(C(=O)Cn2ncc3ccsc3c2=O)CC1	0.0	1.0%	-4.6	6.5	-36.6	Arbovirus inh repeat=2.8
O=S(=O)(Nc1ccccc1N1CCCCC1)c1ccccc1	-3.3	·	·	0.0	·
O=C(/C=C/c1cccc([N+](=O)[O-])c1)NCCSCc1cccc(Cl)c1	2.0	4.3%	-17.2	14.3	-19.9
COc1c(C)cccc1C(=O)Nc1cc(-c2nn3c(C)nnc3s2)ccc1C	-1.3	-1.1%	4.2	0.9	-13.6	Arbovirus inh repeat=-8.4
O=C(O)/C=C\c1cccc(-n2nnnc2SCc2ccccc2F)c1	3.5	·	·	-4.3	·
CCc1ccc(NC(=O)COc2ccc3c(c2)OCO3)cc1	-1.0	·	·	97.5	·
Cc1cc(C)n(CC2CC(=O)N(c3ccccc3)C2=O)n1 (centres undefined)	-1.2	-0.4%	·	5.8	·
CCOC(=O)c1ccc(NC(=O)Nc2c(C)nn(C)c2C)cc1	0.9	1.0%	-1.0	-2.5	-1.4
COc1ccc2c(c1)c(C(=O)N/N=C/c1ccc(Br)cc1)c(C)n2C	4.7	-8.8%	·	0.4	·
COc1ccccc1NC(=S)NCCc1ccccc1	0.4	4.7%	6.5	2.5	17.0
NNC(=S)Nc1cccc(-c2n[nH]c(=S)o2)c1	2.7	-1.4%	·	0.9	·
C=Cn1cc[n+](CC(=O)c2ccc(C)cc2)c1	-2.5	-3.0%	3.2	-3.7	·
O=C(CCCN1C(=O)c2ccccc2C1=O)Nc1c2c(nc3c1CCC3)CCC2	·	-8.3%	1.2	·	0.5
OC1CCN(C(c2ccc3ncccc3c2)c2nnnn2C2CCCCC2)CC1 (centres undefined)	0.7	-8.6%	-7.0	-3.7	-10.9
O=C(NCCc1ccc(F)cc1)C(=O)NCC1CCCN1S(=O)(=O)c1cccs1 (centres undefined)	-0.6	·	·	-2.9	·
CCNC(=S)NNC(=S)NCc1ccccc1	-3.4	-6.5%	2.4	3.8	-29.6
CCC(=O)c1ccc(OCC(=O)OC(C)C(=O)N2CCc3ccccc32)cc1 (centres undefined)	-0.8	·	·	44.1	·
CCSc1nnc(NC(=O)C2CCCN(S(=O)(=O)c3cnc[nH]3)C2)s1 (centres undefined)	·	6.9%	6.3	-7.5	-19.4
Cc1cc2nc3n(c2cc1C)CC1CC(C(=O)NCc2cccc(Br)c2)N(C)C31 (centres undefined)	1.3	·	·	1.5	·
Cc1ccc(COc2ccc(CNCCCN3CCCCCC3=O)cc2)cc1	1.1	·	·	9.8	·
Cc1ccc(NS(=O)(=O)c2ccc(F)cc2)nc1	-0.2	·	·	-0.4	·

A portion of the library; count on the stated rates, not on these rows.
